Assay outcomes (PubChem)
KCNQ2 enhance – KCNQ2 (rat) channel potentiation; B-score at 10 µM; CHO-K1 KCNQ2, FluxOR thallium flux fluorescence; hits give high values; 0.54% of 310,000 active; O88943;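 active = fluorescence ratio B-score at least 3 SD of library B-scores, with initial fluorescence B-score within 3 SD, cut at about 5.3 in these data; same plate scores as AID 2156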;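 note: B-score of peak minus minimum over baseline fluorescence ratio after K+ and Tl+ stimulus; positive B-score means potentiation of KCNQ2 with more thallium influx and brighter signal; only the inactives scoring about 0 or higher are listed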
Target sequence (O88943 whole entry, looked up): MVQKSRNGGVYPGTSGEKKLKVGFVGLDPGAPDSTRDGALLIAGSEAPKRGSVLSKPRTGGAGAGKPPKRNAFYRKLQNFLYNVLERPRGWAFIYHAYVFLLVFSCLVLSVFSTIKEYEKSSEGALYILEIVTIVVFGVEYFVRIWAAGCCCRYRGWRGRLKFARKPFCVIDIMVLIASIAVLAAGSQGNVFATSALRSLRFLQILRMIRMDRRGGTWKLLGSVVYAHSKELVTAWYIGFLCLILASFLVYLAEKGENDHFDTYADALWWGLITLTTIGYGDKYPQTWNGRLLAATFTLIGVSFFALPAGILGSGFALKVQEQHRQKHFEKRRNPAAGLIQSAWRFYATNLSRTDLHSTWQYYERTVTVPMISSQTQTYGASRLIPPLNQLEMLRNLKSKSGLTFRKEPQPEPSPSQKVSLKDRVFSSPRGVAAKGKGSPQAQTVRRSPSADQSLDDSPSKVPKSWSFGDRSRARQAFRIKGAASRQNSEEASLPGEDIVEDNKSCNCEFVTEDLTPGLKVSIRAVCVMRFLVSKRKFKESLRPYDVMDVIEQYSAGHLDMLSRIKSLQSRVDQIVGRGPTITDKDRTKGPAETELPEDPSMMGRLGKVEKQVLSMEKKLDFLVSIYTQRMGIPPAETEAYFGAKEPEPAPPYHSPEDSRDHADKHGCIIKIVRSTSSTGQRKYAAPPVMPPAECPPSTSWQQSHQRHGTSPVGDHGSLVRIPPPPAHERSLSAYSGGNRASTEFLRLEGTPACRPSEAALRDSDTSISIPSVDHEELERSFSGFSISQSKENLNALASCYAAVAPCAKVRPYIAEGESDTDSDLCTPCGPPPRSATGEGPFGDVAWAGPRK
KCNQ2 enhance baseline – further read-out of KCNQ2 enhance, marked with its call; B-score; compound at 10 µM; measured here: initial fluorescence intensity artifact check;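 brightness before thallium and not channel activity; 0 = typical well and far values either way flag optical interference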
* marks the source's active call; other numbers are inactive results; · = not tested or not shown. This is a subset; the hit share may differ from the screen's.

Sequence of screens: KCNQ2 enhance | KCNQ2 enhance baseline
COC(=O)C(C)Sc1nc2c(cnn2-c2ccc(C)cc2)c(=O)[nH]1 (stereo unspecified)
→ 0.92 | 0.36
CC1=NN(C(=O)COc2ccccc2)C(O)(c2ccccc2)C1 (stereo unspecified)
→ 0.2 | -1.2
Cc1cc(/C=N/NC(=O)c2ccsc2)c(C)n1-c1cnccn1
→ 0.14 | 0.34
CN1C(=O)C(CCC(=O)O)NC1=S (stereo unspecified)
→ 0.15 | 0.46
COc1ccccc1NC(=S)N1CCC(C(=O)c2ccc(F)cc2)CC1
→ 1.4 | -0.72
CCOC(=O)C1CCN(S(=O)(=O)c2ccc3c4c(cccc24)C(=O)N3)CC1
→ 0.37 | 0.93
Cc1c(CCC(=O)O)c(=O)oc2cc(OCc3cccc(Cl)c3)ccc12
→ 0.34 | -0.94
O=C(CSc1nnc(CNC(=O)c2cccs2)o1)Nc1ccc(F)cc1F
→ 0.59 | -1.1
O=C(NCc1cccnc1)c1cc2nc(-c3ccc4c(c3)OCO4)cc(C(F)(F)F)n2n1
→ 0.51 | 0.49
COc1cc2c(-c3ccccc3O)nc3c(c(C)nn3-c3ccccc3)c2cc1OC
→ 1.1 | -0.71
Cc1cc(NC(=O)c2ccc3c(c2)OCO3)no1
→ 0.92 | -1.3
Cc1ccc(N2CC(NS(=O)(=O)c3cccs3)CC2=O)cc1C (stereo unspecified)
→ 1.5 | -1
CC12CC(NC(=O)N1c1cccc(C(=O)N3CCN(c4ccccc4F)CC3)c1)c1ccccc1O2 (stereo unspecified)
→ 0.12 | -0.54
CC1(C)CC2c3cccc(C(=O)O)c3C(=O)N2c2c1ccc1ccccc21 (stereo unspecified)
→ 2 | -1.8
O=C(NCc1ccc(OC(F)(F)F)cc1)C1CC2Cn3c(nc4ccccc43)C2N1Cc1ccccc1 (stereo unspecified)
→ 0.47 | -0.44
COCCn1c(SCC(=O)Nc2ccc3c(c2)OCCO3)nnc1C(C)C
→ 0.81 | 2.1
COc1ccc(Nc2nc(N)nc(CSc3nccn3C)n2)cc1
→ 0.12 | -0.04
CC(C)OC(=O)c1cccc(C(=O)O)n1
→ 0.9 | -0.01
Cc1coc2c1c(C)cc1oc(=O)c(CC(=O)N[C@@H](C)C(=O)O)c(C)c12
→ 1.3 | 0.42
Cn1nnnc1SCCNCc1ccc(Cl)cc1
→ 0.21 | 0.28
COc1ccc(-n2c(SCC(N)=O)nnc2-c2ccc(NS(=O)(=O)c3ccc(C)cc3)cc2)cc1
→ 0.44 | -0.09
CN(C)CCC#CC1(O)c2ccccc2-c2ccccc21
→ 0.07 | -0.3
Cc1nc2ccc(NC(=O)Cc3c(F)cccc3Cl)cc2s1
→ 0.51 | -0.72
CCc1ccc(CCC(=O)Nc2ccc(Cl)cc2)o1
→ 4.6 | -1.1
CCN1C(=C(C#N)C#N)C=Cc2ccccc21
→ 0.78 | 0.89
Cc1sc(/N=C/c2ccccc2O)c(C#N)c1C
→ 0.02 | 0.09
CCOc1ccc(S(=O)(=O)Nc2ccc(S(=O)(=O)N3CCCC3)cc2)cc1
→ 2.3 | 0.1
O=C(CSc1ccc2nnc(-c3ccc(F)cc3)n2n1)NCC1CCCO1 (stereo unspecified)
→ 0.79 | -0.44
COC(=O)[C@@]1(C)CC[C@]2(C)CC[C@@]3(C)C(=CC(=O)C4[C@@]5(C)CC[C@H](O)C(C)(C)[C@@H]5CC[C@]43C)[C@H]2C1 (stereo partly specified)
→ 0.11 | 0.12
Cc1ccc([N+](=O)[O-])cc1N=Nc1c(C)[nH]n(C(N)=S)c1=O
→ 0.58 | 0.89
Cc1ccsc1C1C2=C(CC(C)(C)CC2=O)Nc2ncnn21 (stereo unspecified)
→ 0.02 | 0.19
Cc1cccc(C)c1Nc1nnc(SCC(=O)NC2CCS(=O)(=O)C2)s1 (stereo unspecified)
→ 0.51 | -0.02
CCCS(=O)(=O)c1nc(S(=O)(=O)c2ccc(C)cc2)c(NCCCN2CCCC2=O)s1
→ 0.21 | 0
CCc1ccccc1NC(=S)N(CCOC)C(C)c1ccco1 (stereo unspecified)
→ 1.7 | 2.1
Cc1cccc(C)c1NC(=O)CSc1nnc(-c2ccco2)n1N
→ 0.26 | -0.14
O=C(CNC(=O)c1cccnc1)N=Nc1c(O)[nH]c2c(Br)cc(Br)cc12
→ 1.2 | -2.1
CC(C)CC1NC(=O)N(CC(=O)Nc2ccc3c(c2)CCC3)C1=O (stereo unspecified)
→ 1.1 | 0.76
NC(=O)CC(NC(=O)c1ccccc1)c1ccc(NCc2ccccc2)c([N+](=O)[O-])c1 (stereo unspecified)
→ 0.03 | 1
O=C(CCS(=O)(=O)c1ccc(Br)s1)NC1CCCC1
→ 1.9 | -0.43
CC(O)CN(C)CC/C=C1/c2ccccc2CSc2ccccc21 (stereo unspecified)
→ 0.23 | -0.68
O=[N+]([O-])c1ccccc1/C=N/NC1=NS(=O)(=O)c2ccccc21
→ 0.49 | 1.7
Cc1nn(Cc2ccc(C(=O)NN)o2)c(C)c1Cl
→ 0.69 | 2.1
Cc1sc(NC(=S)NC(=O)C2CCCCC2)c(C(N)=O)c1C
→ 0.74 | 0.02
Nc1nnc(Cc2ccc(F)cc2)s1
→ 0.37 | -0.32
CCN1C(=O)/C(=C\c2ccc(-c3ccc([N+](=O)[O-])cc3OC)o2)SC1=Nc1cccc(C(=O)O)c1
→ 0.62 | -3.4
Cc1ccc(CNCC2CCCO2)s1 (stereo unspecified)
→ 0.42 | 0.45
CC(=O)N1CCN(c2ccc(NC(=O)c3ccc(C)c([N+](=O)[O-])c3)cc2)CC1
→ 0.78 | 1.7
Cn1c(SCC(=O)NCc2ccc3c(c2)OCO3)nnc1-c1cc2ccccc2cc1O
→ 0.46 | 0.99
COc1ccc2[nH]c(C)c(CN3CCCCC3)c(=O)c2c1
→ 0.1 | 0.03
CCCN(CCC)CC(=O)N1CC(=O)Nc2ccccc21
→ 0.4 | 1.1
CCOC(=O)Cc1nnc(NC(=O)C(CC)Sc2nc(C)cc(C)n2)s1 (stereo unspecified)
→ 2.7 | -2
O=C(c1ccco1)N1CCN(C2CC(=O)N(c3ccc(C(F)(F)F)cc3)C2=O)CC1 (stereo unspecified)
→ 1.2 | -0.45
CCn1c(C)nc2cc(C(=O)NNS(=O)(=O)c3ccc(C)cc3C)ccc21
→ 0.01 | -0.27
CC(C)N(CCCNC(=O)c1ccc(N2CCCC2=O)cc1)Cc1ccccc1
→ 0.1 | -0.51
CCCCn1c(CNC(=O)C23CC4CC(CC(C4)C2)C3)nnc1SCC(=O)Nc1nnc(C)s1
→ 0.12 | 0.02
Cc1ccc(C(=O)NCC(=O)OCC(=O)Nc2ccc(Cl)cc2C(F)(F)F)cc1C
→ 0.13 | 0
O=C(N/N=C\c1ccc[nH]1)c1cncc(Br)c1
→ 0.02 | 1.1
COc1ccc(NC(=O)c2ccco2)c(NC(=O)c2ccc([N+](=O)[O-])cc2)c1
→ 1.6 | -0.01
COc1cccc2c1SCc1ccccc1C2CC(N)=O (stereo unspecified)
→ 0.76 | 0.6
COc1cc(S(=O)(=O)N(Cc2ccc(C)cc2)Cc2ccco2)ccc1-n1cnnn1
→ 0.38 | 0.07

6 compounds out of the list, sorted by formula weight, lowest first:
Sequence of screens: KCNQ2 enhance | KCNQ2 enhance baseline
Cc1nn(Cc2ccc(C(=O)NN)o2)c(C)c1Cl
→ 0.69 | 2.1
Cc1sc(NC(=S)NC(=O)C2CCCCC2)c(C(N)=O)c1C
→ 0.74 | 0.02
Cc1cccc(C)c1NC(=O)CSc1nnc(-c2ccco2)n1N
→ 0.26 | -0.14
NC(=O)CC(NC(=O)c1ccccc1)c1ccc(NCc2ccccc2)c([N+](=O)[O-])c1 (stereo unspecified)
→ 0.03 | 1
Cc1ccc(C(=O)NCC(=O)OCC(=O)Nc2ccc(Cl)cc2C(F)(F)F)cc1C
→ 0.13 | 0
Cn1c(SCC(=O)NCc2ccc3c(c2)OCO3)nnc1-c1cc2ccccc2cc1O
→ 0.46 | 0.99

Remaining list, next part
Sequence of screens: KCNQ2 enhance | KCNQ2 enhance baseline
COc1cccc(C2=NOC(C(=O)NCc3cccs3)C2)c1 (stereo unspecified)
→ 0.02 | -0.06
Cc1ccc(S(=O)(=O)N(C)c2ccc(OC(=O)CN3C(=O)NC4(CCCC4)C3=O)cc2)cc1
→ 0.73 | 0.2
N/C(Cc1ccc([N+](=O)[O-])cc1)=N\OC(=O)COc1ccc2ccccc2c1
→ 0.16 | -0.02
Cc1cc(/C=C(\C#N)C(=O)NC2CCCCCC2)c(C)[nH]1
→ 0.06 | 0.99
O=S(=O)(Nc1ccccc1N1CCCCC1)c1cccs1
→ 1.7 | -1.2
CCCCNC(=O)N1CCc2ccccc2C1
→ 1.1 | 0.02
CC(=O)Nc1ccc(NC(=O)C2CCCN(S(=O)(=O)c3ccc(Cl)cc3)C2)cc1 (stereo unspecified)
→ 1.5 | 0.93
CC(C)(C)OC(=O)N1CCC(Cc2cc(-c3cccnc3)no2)(C(=O)O)CC1
→ 0.91 | -1.4
Cc1ccc(S(=O)(=O)NNC(=O)c2cc(C)cs2)cc1
→ 0.36 | 0.88
Cc1cc(NCc2ccncc2)ccc1Br
→ 0.57 | -0.26
COCCn1c(SCC(=O)Nc2cc(C)on2)nc2c(c1=O)SC(C)C2 (stereo unspecified)
→ 0.99 | -1.2
O=C(CCC(=O)NC1CCCCCCC1)Nc1nnc(C(F)(F)F)s1
→ 2.1 | -0.22
O=S(=O)(NCC1CCCO1)c1ccc2ccccc2c1 (stereo unspecified)
→ 0.03 | -1.2
Cc1cc(C)cc(NC(=O)CSc2nc(CSc3ccc(Cl)cc3)cc(=O)[nH]2)c1
→ 1.8 | -1.1
Cc1ccccc1N=C1N=C(N)c2ccccc21
→ 1.3 | -0.02
CCSc1nccc(-c2nn(-c3ccc(C)cc3)ccc2=O)n1
→ 0.44 | -2.2
O=S(=O)(NCCC1CC1(Cl)Cl)c1ccccc1 (stereo unspecified)
→ 0.69 | 0.28
OC(COc1ccccc1)CN1CCN(CC(O)COc2ccccc2)CC1 (stereo unspecified)
→ 1.6 | -0.29
CCOc1ccc(N(CCCCO)C(=S)NC(=O)c2ccc(C)c(Br)c2)cc1
→ 0.15 | 0.02
O=C(NCCc1csc(-c2cccnc2)n1)c1ccc(Br)o1
→ 2.9 | -0.62
O=C(CCCSc1nc2ccccc2[nH]1)NCc1ccccc1Cl
→ 0.64 | -0.47
COc1cc(/C=C/C(=O)OCC(=O)NCCN2C(=O)CSC2=O)ccc1OC(F)F
→ 1.2 | -0.68
COCCN(CCOC)c1ncnc2c1cnn2-c1ccc(Cl)cc1
→ 1.2 | 0.03
O=[N+]([O-])c1cc2c(c(CSc3nnc4ccccn34)c1)OCOC2
→ 1.5 | -0.52
COc1ccc(CCNC(=O)C(C(=O)c2ccccc2)n2ccccc2=O)cc1OC (stereo unspecified)
→ 0.57 | 0.1
Cn1nnnc1SCCNCc1ccccc1OCc1ccc(F)cc1
→ 1.2 | 1
CCOc1ccccc1NC(=O)c1ccccc1-c1ccccc1
→ -5.6 | ·
CCc1nccn1Cc1cc(C=O)ccc1OC
→ 1.2 | 0.13
CCN(C(=O)COC(=O)c1cn(-c2ccccc2)nc1-c1ccccc1)C1CCS(=O)(=O)C1 (stereo unspecified)
→ 0.78 | 0.2
CC1CN(C(=O)COC(=O)c2ccccc2O)CC(C)O1 (stereo unspecified)
→ 1.4 | 0.02
CC1CCCCC1NC(=O)Cn1cccc1C(=O)c1ccccc1 (stereo unspecified)
→ 1.5 | 0.47
CCN(C(=O)c1cn(C)c(=O)c2cc(OC)c(OC)cc12)c1cc(OC)ccc1OC
→ 0.08 | 0
COc1ccc(C(=O)Nc2ccc(C(=O)NCCc3ccccc3)cc2)cc1
→ 0.01 | -0.92
CC(=O)c1ccc(NC(=O)C(=O)c2cn(CC(=O)N3CCCCC3)c3ccccc23)cc1
→ 0.29 | 0.75
CCn1c(-c2ccc(N)cc2)nc2ccccc21
→ 2.3 | 0.63
CCOC(=O)C1=C(C)NC(=O)CC1c1cc(OC)c(OC)cc1Br (stereo unspecified)
→ 1.1 | 0.06
CCCn1c(=S)[nH]c2ccc(C(F)(F)F)cc21
→ 0.21 | 1.2
Cc1cc2cc(CCNC(=O)c3cccs3)c(=O)[nH]c2cc1C
→ 2.1 | -0.61
Cc1ccc(OCC(=O)NCCCNC(=O)c2ccncc2)cc1C
→ 1 | -0.99
CCN(CC)CCCNC(=O)C1CCN(C(=O)c2oc3cc4sc(N(C)C)nc4cc3c2C)CC1
→ 0.11 | 1.5
O=C(NCCCN1CCOCC1)C(Sc1ccccc1)c1ccccc1 (stereo unspecified)
→ 0.23 | -0.07
CCOc1ccccc1C(=O)N(CN1CCCC1=O)c1cccc(Cl)c1
→ 0.09 | 0.46
COc1ccc(Nc2nc3ccc(C)cn3c(=O)c2/C=N/O)cc1
→ 0.14 | 1.5
COCC(C)NC(=O)C1CC(=O)N(c2ccc(C)cc2)C1 (stereo unspecified)
→ 1.2 | 0
CN1CCN(S(=O)C23CC4CC(CC(C4)C2)C3)CC1 (stereo unspecified)
→ 1 | -0.01
COc1ccc(C2=NS(=O)(=O)N(C)C(C(=O)NC3CCCC3)=C2)cc1
→ 0.03 | -0.25
Cc1ccc(NS(=O)(=O)c2ccc(C(=O)N3CCCC(C(F)(F)F)C3)cc2)cc1 (stereo unspecified)
→ 0.51 | -1.3
COc1cc(CN(CC2CCCO2)C(=O)c2ccco2)cc(OC)c1OC (stereo unspecified)
→ 0.29 | 2.1
CC1CCN(C(=S)c2ccccc2O)CC1
→ 0.47 | -1.3
Cc1ccccc1S(=O)(=O)Cc1ccc(C(=O)NC2CC2)o1
→ 1.1 | -0.08
COc1ccc(OC)c(S(=O)(=O)N2CCCC(C)C2)c1 (stereo unspecified)
→ 0.77 | 1.8
Cc1ccc(C)c(C(=O)CSc2n[nH]c(-c3ccncc3)n2)c1
→ 0.63 | 0.77

Two of these compounds, set out differently:
Molecule	KCNQ2 enhance	KCNQ2 enhance baseline
CCOC(=O)C1=C(C)NC(=O)CC1c1cc(OC)c(OC)cc1Br (stereo unspecified)	1.1	0.06
CCCn1c(=S)[nH]c2ccc(C(F)(F)F)cc21	0.21	1.2
